NPYLR7 agonist: activates Aedes aegypti NPYLR7 receptor; HEK293T NPYLR7/Galpha15, GCaMP6s calcium fluorescence; activation, % at 10 µM; hit rate 0.15% among 270,000; in the data active = activation above about 40%;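 also: 0% = vehicle and 100% = reference agonist at the receptor; some compounds past the cut are filed as inactive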
NPYLR7 agonist max-min: second read-out of NPYLR7 agonist, no call of its own (marks repeat the call); activation, %; measured here: Max-Min RFU normalised activation; some inactives read as strong as hits;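 span of the calcium signal over five minutes; 0% = vehicle and 100% = native peptide agonist; compound fluorescence can raise it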
Starred values were filed as active, the others as inactive. Only part of the results is shown, so the mix of outcomes need not match the whole.

structure	NPYLR7 agonist	NPYLR7 agonist max-min
O=C1Nc2ccccc2C1=NN=Cc1cccc([N+](=O)[O-])c1	-5.9	-14.7
O=C(NC1CC1)C1CCCN(C(=O)c2cnc(-c3ccccc3)nc2)C1 (stereo not drawn)	0.8	2.5
Cc1cc(C)cc(-n2c(C)cc(/C=C3\C(=O)NC(=S)N(c4ccccc4)C3=O)c2C)c1	-13.9	-17.4
O=C(CCn1nnc(-c2ccccc2)n1)NC1CCCCC1	2.1	0.6
CC(NC(=O)N(Cc1ccccc1)C1CC1)c1cnn(C)c1 (stereo not drawn)	5.4	4.5
CN(CC(=O)Nc1cccc(F)c1)C(=O)CC1Sc2ccc(Cl)cc2NC1=O (stereo not drawn)	8.8	7.9
O=C(NC(Cc1ccccc1)c1ccccc1)c1cc2n(n1)CCN(Cc1c(Cl)cccc1Cl)C2=O (stereo not drawn)	0.9	8.2
CCCCCCC1C2=C(CCCC2=O)OC(=N)C1C#N (stereo not drawn)	0.6	-2.8
Cc1nc(SCC(=O)Nc2sc3c(c2C(N)=O)CCC3)c2c3c(sc2n1)CCC3	16.6	8.1
CCc1nc2c(OCc3ccc(Cl)cc3Cl)cccn2c1N(C)C(=O)c1ccccc1F	-8.1	-1.3
O=C(c1cc(COc2cncc(Cl)c2)on1)N1CC[C@@H]2CCCC[C@H]2C1	4.6	0.8
Cc1cccc(C(=O)NCc2ccccc2CN2CCOCC2)c1	0.9	0.8
C=CCOCC(O)CN(Cc1ccc(C)s1)C1CC1 (stereo not drawn)	21.2	22.0
CCNC(=O)N(CCOC)Cc1c(C)nn(-c2cccc(F)c2)c1N1CCN(CC)CC1	0.1	5.4
Cc1ccc(F)c(S(=O)(=O)NC(=O)C2(C)CCN2C(=O)CCc2ccccc2)c1 (stereo not drawn)	-1.4	-1.8
Cc1c(Cl)cccc1-n1c(SCC#N)nc2ccccc2c1=O	4.3	-0.8
CSc1nnc(SCC(=O)NC(C)c2ccc(C)c(C)c2)s1 (stereo not drawn)	-2.4	20.7
CCOC(=O)c1ccc(S(=O)(=O)NCCn2nc(-c3ccc(Cl)cc3)ccc2=O)cc1	-1.5	-2.2
Cc1cccc(CN2CCN(C(=O)[C@H](N)CC(C)C)CC2=O)c1	-0.1	5.6
CCOc1ccccc1OCCN[C@H](C)Cc1ccc(OC)c(S(N)(=O)=O)c1	-20.2	-29.5
CC1CC(=O)Nc2c1c(NC(=O)Cc1ccccc1)nn2C (stereo not drawn)	-18.3	-21.1
CCc1ncc(-c2c(-c3ccccc3)ncn2Cc2ccccc2F)cn1	2.2	-6.0
Cn1nnc2c(N3CCN(c4cccc(C(F)(F)F)c4)CC3)ncnc21	13.2	9.0
CCOc1ccc(/C=C2N=C(/C=C/c3ccc(Cl)cc3)OC/2=O)cc1	0.2	-3.7
CCOC(=O)CCC(=O)N(CC(=O)c1c(C)c(C(=O)OC)n(CC)c1C)Cc1ccco1	-14.1	-2.0
CCCCCOc1ccc(C(=O)NCCN(C)C)cc1OCCCCC	-2.4	-11.7
COC(=O)c1cc(F)ccc1COC(=O)Cc1c(C)noc1C	-0.2	-3.3
CC(=O)c1ccc(NC(=O)N2CCc3ccccc3C2c2ccc(F)cc2)cc1 (stereo not drawn)	-2.4	7.4
C1CCC(N2CCC(N3CCOCC3)CC2)CC1	15.2	11.2
Clc1ccccc1CNCC1CC(c2ccc3c(c2)OCO3)=NO1 (stereo not drawn)	-4.3	-7.5
O=C(CCc1ccccc1)N1CCN(c2ncnc3c2nnn3Cc2ccccc2)CC1	-6.6	-9.8
CN1CCN(n2c3c(c(SCC(=O)Nc4ccc5c(c4)OCCO5)nc2=O)CCC3)CC1	-3.3	-7.8
COCCCNc1nc2nonc2nc1N1CCN(CCOc2ccccc2)CC1	1.2	-0.8
O=C1CSC(c2cccnc2)N1c1ccc(O)cc1 (stereo not drawn)	-9.4	-14.8
Cc1nnnn1-c1cccc(C(=O)NC2CC(=O)N(C3CCCCCC3)C2)c1 (stereo not drawn)	2.6	-0.1
Cn1cc(C(CC(=O)NC2CC2)c2ccc(Cl)cc2)c2ccccc21 (stereo not drawn)	-3.5	2.3
CCC(C)N(Cc1ccccc1OS(=O)(=O)c1ccc(F)cc1)C(=O)NC(C)C (stereo not drawn)	26.5	23.7
O=C(CSc1nnc(Cc2ccccc2)o1)NC(=O)NCC(F)(F)F	6.2	0.4
Cn1c(=O)oc2cc(S(=O)(=O)NC3COc4ccccc4C3)ccc21 (stereo not drawn)	2.4	2.7
Cc1cc2ccccc2n1CCC(=O)NCCn1cccn1	23.6	10.1
Cc1cc2cc(CNC(=O)C3CCCC3)ccc2n1C	5.3	1.0
COc1ccc(C)cc1S(=O)(=O)NCCc1csc2nc(-c3ccc(Cl)cc3)nn12	9.6	5.6
CN(c1ccc(Br)cc1)c1ncnc2c1nc1n2CCCCC1	0.5	-4.1
CC(C)NC(=O)C1CCN(c2nc3ncn(CC(=O)NC4CCc5ccccc54)c(=O)c3s2)CC1 (stereo not drawn)	0.4	8.2
Nc1c(C(=O)CSc2nnnn2C2CCCCC2)c(=O)[nH]c(=O)n1C1CC1	-0.3	9.4
O=C(NC1CCN(c2ccccc2C(=O)NCCc2ccccc2)CC1)c1ccco1	5.3	5.7
CCN(C)S(=O)(=O)c1ccc(C(F)(F)F)cn1	-3.3	-1.4
Cc1ccccc1C(NC(=O)C1CCN(Cc2ccc(Oc3ccccc3)cc2)CC1)c1ccsc1 (stereo not drawn)	10.0	-0.9
COCCCNC(=O)Cn1ncn2c(cc3sccc32)c1=O	5.3	5.8
C=CCn1c(O)c(N=Nc2ccccc2C)c2ccccc21	-8.0	-10.0
CCc1cc(CNCc2ccc(Oc3cccnc3)c(C)c2)[nH]n1	0.3	0.9
N#Cc1cccnc1NCC(c1ccco1)N1CCCCC1 (stereo not drawn)	1.3	0.8
O=C(Nc1ccc(-c2cccc(F)c2)cc1)C1CCCN1Cc1ncc[nH]1 (stereo not drawn)	-0.6	-5.8
COc1ccc(OCc2ccc(-c3nc(C#N)c(NC4CCCCC4)o3)o2)cc1	-2.0	7.2
CCC1(C)NC(=O)N(N=Cc2ccc(N3CCCCC3)s2)C1=O (stereo not drawn)	-0.6	3.7
COc1cccc(COCC(=O)N2CCN(c3ccccc3O)CC2)c1	4.3	3.4

(cont.)
structure	NPYLR7 agonist	NPYLR7 agonist max-min
CCOc1ccc(-c2nc(N(C)CCc3ccccc3)c3ccccc3n2)cc1	4.6	6.8
Cc1cc(C=NNC(=S)NCCc2ccccc2)c(C)n1CC(C)C	1.1	-2.1
COc1ccc(-n2c(SCc3ccc(C(=O)NCc4ccc(F)cc4)cc3)nnc2-c2ccccc2[N+](=O)[O-])cc1	11.8	18.1
O=C(c1ccc(Cl)cc1)C1CCCN(C(=O)C#Cc2ccccc2)C1 (stereo not drawn)	12.0	4.6
COc1ccc(C(=O)CSc2n[nH]c(-c3ccccc3)n2)cc1	13.6	4.5
NC(=O)C1Cc2ccccc2CN1C(=O)C1CCN(C(=O)c2cccs2)CC1 (stereo not drawn)	-2.8	-4.3
O=C(Nc1ccc(C2SCC(=O)N2c2ccc3c(c2)OCO3)cc1)c1ccc(C(F)(F)F)cc1 (stereo not drawn)	-0.8	1.0
CCn1nnc2c(SCC(=O)NC3CCCCC3)ncnc21	0.1	-3.7
CCOC(=O)c1cc(-c2cccc(NC(=O)c3ccc4nonc4c3)c2)n(-c2cccc(C)c2)n1	25.4	17.8
COc1ccc(N2CCN(C3CCCN(C(=O)C=C(C)C)C3)CC2)cc1 (stereo not drawn)	3.9	-0.3
COc1ccc(-c2ccc(=O)n(CCNC(=O)C(C)Oc3ccccc3F)n2)cc1OC (stereo not drawn)	-3.3	2.4
COc1ccc(OCCN2CCC(C(=O)NC(c3ccc(Cl)cc3)c3cnccn3)CC2)cc1 (stereo not drawn)	6.1	10.4
CCN(C(=O)c1sc(C)nc1-c1ccccc1)C1CCS(=O)(=O)C1 (stereo not drawn)	-1.7	-6.7
CCn1nc(C)c(CN2CC3(CCNCC3)CC2C(=O)O)c1C (stereo not drawn)	-4.8	-2.2
CCCCCCn1c(C)c(C)n2c3c(=O)n(C)c(=O)n(C)c3nc12	-3.9	-6.5
Nc1ccccc1SCc1cn2ccccc2n1	1.8	2.3

The listing continues.
Fields – NPYLR7 agonist | NPYLR7 agonist max-min
- COc1ccc(-c2cc3nc(NCCCN(C)C)n(C)c(=O)c3s2)cc1OC
 : 0.5 | 0.4
- Fc1ccc(-c2nnc(SCc3cc(Cl)c4c(c3)OCCO4)o2)cc1
 : 10.9 | 13.4
- CCC(=O)N(Cc1ccc(OCc2nc(CO)cs2)cc1)C1CC1
 : -0.4 | -1.1
- CCOC(=O)C1C2C=CC3(CN(CC4CCCO4)C(=O)C13)O2 (stereo not drawn)
 : -3.7 | -7.5
- CCOC(=O)c1sc(NC(=O)c2cc3nc(-c4ccccc4)cc(C)n3n2)c(C(=O)OCC)c1C
 : -9.1 | -14.3
- CC(=O)c1cc(CN2CCC(CO)(CC3CCCCO3)CC2)cs1 (stereo not drawn)
 : 12.6 | 4.8
- CC(=O)c1sc2nc(CSc3nnc(C4CC4)o3)[nH]c(=O)c2c1C
 : 21.6 | 22.8
- CCC(CC)n1nc(C)cc1NC(=O)C1(C)CC(C)=NO1 (stereo not drawn)
 : -11.2 | -10.9
- C/C=C\COC1CCCN(C(=O)c2cccc(F)c2)C1 (stereo not drawn)
 : 3.7 | 3.6
- CCN(CC)S(=O)(=O)c1ccc2c(c1)nc(SCc1ccc(C(F)(F)F)cc1)n2Cc1ccco1
 : 25.6 | 16.0
- CC1=NN(C(=O)c2ccccc2Cl)C(O)(c2ccc(Cl)cc2)C1 (stereo not drawn)
 : 10.1 | 3.4
- COc1ccc(C2c3[nH]c4ccccc4c3CCN2C(=O)CCn2cncn2)c(C)c1C (stereo not drawn)
 : 9.0 | 7.7
- CCc1[nH]n(-c2ccc(Cl)c(Cl)c2)c(=O)c1C1=C(N2CCN(C)CC2)C(=O)N(CC(C)C)C1=O
 : -3.3 | 1.5
- O=C(N[C@@H]1CCCCC1NC(=O)C1CCN(S(=O)(=O)c2ccc(Cl)c([N+](=O)[O-])c2)CC1)c1ccccc1 (stereo partly drawn)
 : 29.4 | 21.8
- O=C1c2ccccc2C(=O)N1CN(C(=O)c1ccccc1)c1cccc(F)c1
 : -11.9 | -18.6
- O=C(COC(=O)c1ccc2ccccc2n1)c1ccc(NC(=O)c2ccccc2)cc1
 : 6.6 | 5.5
- CCCCCCCCn1c(CN2CCCCC2C)nc2c1c(=O)n(C)c(=O)n2C (stereo not drawn)
 : -9.2 | -12.4
- COc1ccc(C)cc1N1C(=O)CSC1c1ccc(NC(=O)c2ccc(F)cc2)cc1 (stereo not drawn)
 : 6.1 | 13.6
- Cc1nc(C(C)C)ncc1C(=O)N(CC1CCC(=O)N1)C(C)C (stereo not drawn)
 : 9.3 | 0.1
- C=CCn1c(-c2ccc(Cl)cc2Cl)n[nH]c1=S
 : 3.0 | 8.5

Structures from the list above with two or more sulfur atoms, in the order listed:
Fields – NPYLR7 agonist | NPYLR7 agonist max-min
- Cc1nc(SCC(=O)Nc2sc3c(c2C(N)=O)CCC3)c2c3c(sc2n1)CCC3
 : 16.6 | 8.1
- CSc1nnc(SCC(=O)NC(C)c2ccc(C)c(C)c2)s1 (stereo not drawn)
 : -2.4 | 20.7
- COc1ccc(C)cc1S(=O)(=O)NCCc1csc2nc(-c3ccc(Cl)cc3)nn12
 : 9.6 | 5.6
- CCN(C(=O)c1sc(C)nc1-c1ccccc1)C1CCS(=O)(=O)C1 (stereo not drawn)
 : -1.7 | -6.7
- CC(=O)c1sc2nc(CSc3nnc(C4CC4)o3)[nH]c(=O)c2c1C
 : 21.6 | 22.8
- CCN(CC)S(=O)(=O)c1ccc2c(c1)nc(SCc1ccc(C(F)(F)F)cc1)n2Cc1ccco1
 : 25.6 | 16.0

More records
Fields – NPYLR7 agonist | NPYLR7 agonist max-min
- COc1ccc(-c2c(C)nn3c(N4CCCC4)cc(C)nc23)cc1OC
 : 4.2 | 2.9
- Cc1cccc(Cc2nc3c(c(=O)[nH]2)CN(C(=O)Nc2ccc(Cl)cc2Cl)CC3)c1
 : -10.7 | -5.1
- CC1=Nc2ccccc2C1=Cc1c(N)n2nc(C3CCCCC3)sc2nc1=O
 : 1.8 | 0.6
- N#Cc1ccc(-c2ccc3c(n2)C(=O)N(CC(=O)NCCCN2CCOCC2)C3)cc1
 : 6.7 | 27.4
- O=C(c1ccccc1-c1ccc(C(F)(F)F)cc1)N1CCCC1c1ccncc1 (stereo not drawn)
 : -9.6 | -16.6
- Cc1nnc(NC(=O)CC2CSc3nc4c(cnn4-c4ccc(F)cc4)c(=O)n32)s1 (stereo not drawn)
 : 0.5 | 0.2
- CC(Sc1cn[nH]n1)c1ccccc1F (stereo not drawn)
 : 18.8 | 7.4
- Cc1cc(C)c2nc(N(CCCn3ccnc3)C(=O)C3COc4ccccc4O3)sc2c1 (stereo not drawn)
 : -10.3 | -12.4
- O=C(CSc1nc2ccccc2[nH]1)Nc1ccccc1F
 : -7.3 | -13.9
- O=C(COC1CCCCC1)N1CCOC2(CCCC2)C1
 : 2.3 | 0.9
- O=C(NCc1nnnn1-c1cccc(F)c1)c1ccccc1S(=O)(=O)C(F)F
 : -2.2 | -5.0
- O=C(Cc1ccc(F)cc1)N1CCN(c2cc(Oc3ccc(Cl)cc3F)ncn2)CC1
 : -13.3 | -3.1
- COc1ccc(C(=O)N/N=C\c2ccc(N3CCC(c4ccc(C)cc4)=N3)cc2)cc1
 : -8.7 | -14.7
- Cc1nc(-n2ncc(C#N)c2N=CN(C)C)c2c3c(sc2n1)CCC3
 : 1.6 | -5.1
- Cc1cccc(-c2nc3ccccn3c2NC2CCCCC2)c1
 : 5.1 | 2.2

Compound activity (PubChem BioAssay)
